# Screening results: PubChem BioAssay, Fisher Drug Discovery Resource Center
# NPYLR7 agonist: mosquito NPYLR7 agonism | AID 1259423 | HEK293T NPYLR7/Galpha15, GCaMP6s calcium fluorescence | activation, % at 10 µM | hit rate 0.15% among 270,000; in the data active = activation above about 40%;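 also: 0% = vehicle and 100% = reference agonist at the receptor; some compounds past the cut are filed as inactive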
# NPYLR7 agonist max-min: second read-out of NPYLR7 agonist, no call of its own (marks repeat the call); activation, %; measured here: Max-Min RFU normalised activation; some inactives read as strong as hits;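 span of the calcium signal over five minutes; 0% = vehicle and 100% = native peptide agonist; compound fluorescence can raise it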
# * marks the source's active call; other numbers are inactive results; & = joins results of further samples. Only part of the results is shown; count on the stated rates, not on these rows.
# Values run as follows: NPYLR7 agonist max-min	NPYLR7 agonist
CN(CC1CCCCO1)C(=O)c1ccc2oc(-c3cccc(F)c3)nc2c1 (stereo not drawn)
→ -2	5
O=C(c1cccc(S(=O)(=O)N2CCOCC2)c1)N1Cc2cc3c(cc2C2(CCCC2)C1)OCCO3
→ 5	9
Cc1cc(NC(=O)Cn2nc(-c3cccc([N+](=O)[O-])c3)ccc2=O)no1
→ 6	11
O=C(c1ccc2c(c1)OCO2)N1CCC(n2c(=O)oc3ccc(F)cc32)CC1
→ -1	5
O=C(NC(c1ccccc1)c1cnccn1)C1CCN(CCOc2ccc(Br)cc2)CC1 (stereo not drawn)
→ 7	2
COC(=O)C(C(C)=N)=C(O)CCl
→ -5	-1
CCC1CN(C(=O)CN2CC(=O)NC2=O)CCC(=O)N1Cc1ccccc1 (stereo not drawn)
→ 3	7
Cc1cc(C)c(C)c(S(=O)(=O)NC2(C#N)CCCCC2)c1C
→ -6	-2
N#Cc1ccc(C(=O)N2CCOC(COCc3ccccc3F)C2)c(F)c1 (stereo not drawn)
→ 16	25
C=CCc1c(C)nc2nc(SCc3cc(=O)n4ccc(Br)cc4n3)nn2c1C
→ 0	1
O=C(NCCSCc1c(Cl)cccc1Cl)c1cncn1-c1cccc(-c2cccc3c2sc2ccccc23)c1
→ 12	11
COCCCNC(=O)c1cc(NC(=O)C(c2ccccc2)c2ccccc2)ccc1N1CCCCC1
→ 18	9
COCCOC(=O)N1C[C@H](Oc2ccccn2)[C@H]2C[C@@H]1Cc1c2[nH]c2ccccc12
→ 21	24
CN(CCc1ccccc1)C1CCCN(Cc2cc(=O)[nH]c(=O)[nH]2)C1 (stereo not drawn)
→ 5	6
Cc1cc(/C=C2\SC(=S)N(Cc3ccccc3)C2=O)c(C)n1-c1ccccc1
→ -4	2
Cc1ccc(C)c2sc(N(CCCn3ccnc3)C(=O)c3ccc4c(c3)OCCO4)nc12
→ -7	-10
Cc1cccc(OCCN(C)Cc2cc(C3CC3)n[nH]2)c1C
→ -1	0
O=C(N1CCCC(O)C1)N(Cc1ccccc1)c1ccc(Cl)cc1 (stereo not drawn)
→ 9	9
C=C(C)CN1N=C(C)Cn2c1nc1c2c(=O)n(Cc2ccccc2Cl)c(=O)n1C
→ -12	-13
CC(=O)Nc1ccc(S(=O)(=O)N2CCN(c3nccc(-c4ccc5c(c4)OCO5)n3)CC2)cc1Cl
→ -7	-6
COc1ccc(OCC(O)Cn2c(NCc3ccc(C)cc3)nc3c2c(=O)n(C)c(=O)n3C)cc1 (stereo not drawn)
→ 8	9
Cc1ccccc1CN1C(=O)C(C)ON=C1c1ncccc1C (stereo not drawn)
→ -5	-6
COc1cc(C=C2C(=O)NC(=S)NC2=O)ccc1OCCOc1ccc(C)cc1
→ -13	-7
COc1c(F)cccc1C(=O)N(C)CC1CCCCO1 (stereo not drawn)
→ 1	0
O=C(Nc1ccccn1)N(Cc1ccc(Cl)c(Cl)c1)C1CC1
→ 4	6
Cc1nc(Nc2ccc(NC(=O)Nc3ccc4c(c3)OCCO4)cc2)cc(-n2ccnc2)n1
→ 6	5
CCN(CC)CCCC(C)NC(=O)c1cc(-c2ccccc2F)n2nc(C(C)(C)C)cc2n1 (stereo not drawn)
→ 9	2
COc1ccc(CNC(=O)c2ccc3nc(C)c(N(C)C=O)n3c2)cc1
→ 18	21
CCOC(=O)/C(=C/c1cc2ccccc2n1C(C)=O)[N+](=O)[O-]
→ 1	3
CCc1nc2c(OCCOC)cccn2c1N(C)C(=O)C1CC1
→ -2	0
O=C(O)CCCc1ccc(Br)s1
→ 17	20
Cn1c(SCC(=O)c2c(N)n(C3CC3)c(=O)[nH]c2=O)nnc1-c1ccco1
→ 5	6
CCc1cc(N2CCN(C(=O)c3ccccc3C(F)(F)F)CC2)n2ncnc2n1
→ -1	3
O=C(CCCCSc1nnc(Cc2ccccc2)n1-c1ccccc1)NC(Cc1ccccc1)c1ccccc1 (stereo not drawn)
→ 9	8
O=C1c2ccccc2C(=O)N1CN1CCCCC1
→ -3	-1
O=C(c1ccc(F)cc1)N(Cc1ccco1)Cc1c(-c2ccccc2)noc1N1CCCCC1
→ 11	6
CN1CCc2c(sc(NC(=O)c3cc4cc([N+](=O)[O-])ccc4s3)c2C(N)=O)C1
→ -4	-4
O=c1cc(COc2ccc(F)c(Cl)c2)nc2ccc(Br)cn12
→ 11	9
Cc1cccc(N(CCC(N)=O)C(=O)c2nc(Cl)ccc2Cl)c1
→ 13	1
COc1ccc(OC)c(NS(=O)(=O)c2c(F)cc(F)cc2Br)c1
→ 5	5
CCCNc1ccc(C(=O)N[C@@H]2C[C@H]3CC[C@]2(C)C3(C)C)cn1
→ 2	1
CCN1C(=O)c2cc(NS(=O)(=O)CC)ccc2Oc2ccccc21
→ 5	7
N[C@@H](Cn1ccc(=O)c(O)c1)C(=O)O
→ -5	-4
O=C(NCCc1csc2nc(-c3ccc(Cl)cc3)nn12)c1cccc(F)c1
→ 2	6
CNS(=O)(=O)c1ccc(Nc2cc(C)nc3cc(C(F)(F)F)ccc23)cc1
→ 5	7
CC(C)(C)c1ccc(OCc2nn3c(C(F)(F)F)nnc3s2)cc1
→ -2	-2
Cc1cc(C)nc(NS(=O)(=O)c2ccc(N=Cc3c(O)ccc4ccccc34)cc2)n1
→ -16	-13
CC(Sc1nc2ccccc2c(=O)n1CCc1ccc(S(N)(=O)=O)cc1)c1ccccc1 (stereo not drawn)
→ 0	2
COc1cccc(C(=O)N2CCN(c3nc(CCC(C)C)nc4c3cnn4-c3cccc(Cl)c3)CC2)c1
→ 7	2
Cc1cccnc1CN1CCN(C(=O)c2ccc(=O)[nH]c2)CC1
→ 9	10

# (cont.)
# Values run as follows: NPYLR7 agonist max-min	NPYLR7 agonist
CC(C)CCNC(=O)Cc1csc2nc(-c3cccs3)cn12
→ 5	5
Cc1ccsc1CCNC(=O)C(C)(C)NC(=O)c1cccs1
→ 8	11
CC(C)c1ccc2c(c1)C(N1CCN(C)CC1)=Cc1cccnc1S2
→ -6	-5
Cc1noc(C)c1CC(C)NC(=O)Nc1ccc(Cl)c(F)c1 (stereo not drawn)
→ 2	7
C[C@H]1CC[C@@H]2N(C1)C[C@H]1[C@@H]3C[C@H]4[C@@H](C/C(=N/O)[C@H]5C[C@@H](O)CC[C@@]54C)[C@@H]3CC[C@H]1[C@]2(C)O
→ -1	0
CC(C)(CN1CCOCC1)CN1CCCC(CCN)C1 (stereo not drawn)
→ -4	-1
CCCNC(=O)c1ccc(N2CCNC(C(=O)O)C2)nc1 (stereo not drawn)
→ -1	1
O=C(Oc1ccc(N(C(=O)c2ccncc2)S(=O)(=O)c2ccc(F)cc2)cc1)c1ccncc1
→ -3	0
CCOC(=O)C1(Cc2cccc(Cl)c2)CCCN(C(=O)CCc2ccccn2)C1 (stereo not drawn)
→ 6&6	4&8
O=C(c1cccc(Br)c1)N1CCCC(OCc2cccc(Cl)c2)C1 (stereo not drawn)
→ 3	-3
CS(=O)(=O)c1ccc(C(=O)Nc2ccc(Cl)c(-c3ccccn3)c2)c(Cl)c1
→ -20	-12
Cc1ccc2oc(C(=O)N3CCN(C4CCS(=O)(=O)C4)CC3)cc(=O)c2c1 (stereo not drawn)
→ -2	0
Cc1occc1C(=O)NCCC(=O)N(C)c1ccccc1
→ 2	6
OCC1CCN(Cc2ccc3n2CCN=C3CCc2ccncc2)CC1
→ 6	11
Cc1ccc(N(CC(=O)N2CCOCC2)S(=O)(=O)c2ccc(F)cc2)cc1
→ -4	-3
Oc1c(N=Nc2cccc3ccccc23)cc2c3c1CCCN3CCC2
→ 1	2
Cc1cccc(NC(=O)c2cc([N+](=O)[O-])[nH]n2)c1C
→ 13	-1
N#Cc1ccc(F)c(CNC(=O)N2CCC(n3ccnc3)CC2)c1
→ -3	-2
CCC(=O)Nc1cccc(OCC(=O)N2[C@@H]3CC[C@H]2CNC(=O)C3)c1
→ -2	2
COc1ccc(OC)c(C2SCCN2C(=O)Nc2ccccc2C(F)(F)F)c1 (stereo not drawn)
→ -10	-8
COc1cc2c(cc1OC)C(CNS(=O)(=O)c1ccc(Cl)cc1)N(C(=O)NC(C)(C)C)CC2 (stereo not drawn)
→ 25	30
CC1(C(=O)NS(=O)(=O)c2ccccc2)CCN1C(=O)Cc1cc(F)ccc1F (stereo not drawn)
→ 4	6
Cc1nc2c(c(N[C@H]3CCC[C@H]3Cc3ccc(F)cc3)n1)CNC2
→ -1	-3
CCOC(=O)c1ccc(NC(=O)CCN2C(=O)c3ccccc3C2=O)cc1
→ -3	3
CON1C(=O)c2ccccc2NC12CCN(C(=O)C1CC(=O)OC1(C)C)CC2 (stereo not drawn)
→ 0	0
Fc1ccc(Cc2nc(CSc3c(F)c(F)cc(F)c3F)cs2)c(Cl)c1
→ -2	3
CC(C)[C@@H]1CC[C@@H](C)C[C@H]1OCC(=O)N1CCN(Cc2cc(=O)c(OCc3ccccc3Cl)co2)CC1
→ -1	2
Cc1cccc(Cn2c(=O)c(C(=O)NCCN3CCOCC3)nn(-c3ccc(F)cc3)c2=O)c1
→ 14	13
COC(=O)c1ccc2c(c1)CC(CNC(=O)c1ccccc1C(F)(F)F)O2 (stereo not drawn)
→ 0	2
Cc1nc(SCC(=O)NC(C)(C)C)n(C2CCCCC2)c1C
→ 20	3

# Rewritten as tab-separated lines: six of the compounds above
compound	NPYLR7 agonist max-min	NPYLR7 agonist
Cc1nc2c(c(N[C@H]3CCC[C@H]3Cc3ccc(F)cc3)n1)CNC2	-1	-3
CCOC(=O)c1ccc(NC(=O)CCN2C(=O)c3ccccc3C2=O)cc1	-3	3
CON1C(=O)c2ccccc2NC12CCN(C(=O)C1CC(=O)OC1(C)C)CC2 (stereo not drawn)	0	0
Fc1ccc(Cc2nc(CSc3c(F)c(F)cc(F)c3F)cs2)c(Cl)c1	-2	3
CC(C)[C@@H]1CC[C@@H](C)C[C@H]1OCC(=O)N1CCN(Cc2cc(=O)c(OCc3ccccc3Cl)co2)CC1	-1	2
Cc1cccc(Cn2c(=O)c(C(=O)NCCN3CCOCC3)nn(-c3ccc(F)cc3)c2=O)c1	14	13

# (continued)
# Values run as follows: NPYLR7 agonist max-min	NPYLR7 agonist
CC12CC(NC(=O)N1c1ccccc1)c1ccccc1O2 (stereo not drawn)
→ 2	-4
COCCN(CC(N)=O)Cc1csc2c(F)cccc12
→ 0	2
Cc1nc(C#N)c(N2CCN(C(=O)Cn3cc(C(F)(F)F)ccc3=O)CC2)o1
→ 1	2
Cc1ccc(NC(=O)c2cccc(C#N)c2)c(Br)c1
→ 3	6
CCOc1ccc(Oc2ccc(NC(C)=O)cc2)cc1
→ 1	2
CN(CCOc1ccc(F)cc1)c1ccncc1Cl
→ 7	10
CC(C)c1ccc(CN2CCC(CNC(=O)C3(N)CCC3)C2)cc1 (stereo not drawn)
→ 1	2
CCn1c(=O)c(/C=C/c2ccc3ccccc3c2)nc2cc(C(=O)O)ccc21
→ 2	0
COc1ccc(S(N)(=O)=O)cc1N(C)S(C)(=O)=O
→ 12	12
Cc1cccc(-c2cccc(NC(=O)C3CCCN3C(=O)C3CCOCC3)c2)c1 (stereo not drawn)
→ 7	14
COc1ccnc(CN2CCC(=O)N(CC3CC3)C(C(C)C)C2)c1OC (stereo not drawn)
→ -4	-1
CN(Cc1nc(Cc2ccccc2F)no1)Cc1cccc2ncccc12
→ -5	-3
CCc1nc2n(n1)C(=O)C(C(c1ccco1)N1CCN(c3ccc(F)cc3)CC1)S2 (stereo not drawn)
→ -8	-6
CCc1cccc2c(C(CC(=O)NCCCN3CCOCC3)c3cccc4c3OCO4)c[nH]c12 (stereo not drawn)
→ 1	0
O=C(Nc1ccc2c(c1)OCO2)c1ccc(-n2[nH]c(=O)[nH]c2=O)cc1
→ 15	16
CCOCCOc1nc(-c2ccc(C)cc2)n(-c2ccc(NC(=O)c3ccccc3Br)cc2)n1
→ 32	37
CCC(O)c1nc2ccccc2n1CCOc1cccc(OC)c1 (stereo not drawn)
→ 7	4
CCCn1cnnc1CNC1CCN(c2cccc(C)c2C)CC1
→ -8	-4
COC(=O)c1cc2cc(OC)c(OC)cc2nn1
→ 5	7
Cc1ccccc1C1c2ccsc2CCN1C(=O)CN(C(=O)c1ccc([N+](=O)[O-])cc1Cl)C1CC1 (stereo not drawn)
→ 11	9
CCC(Cc1ccccc1)N(C)c1nccc(OC)n1 (stereo not drawn)
→ -4	-1
Cc1ccc(NC2CCCN(C(=O)c3cccnc3)C2)cc1C (stereo not drawn)
→ -3	-2
O=C(CN(Cc1c(F)cccc1Cl)C1CC1)Nc1cc2c(cc1Cl)OCO2
→ 4	1
Cc1ccc([N+](=O)[O-])cc1NC(=O)CSc1ncn[nH]1
→ 9	11
O=C1c2ccccc2-c2nnc(-c3ccc4c(c3)OCO4)cc21
→ 5	5
Cc1nc2n(n1)C(=O)C(C(c1ccccc1F)N1CCC(O)CC1)S2 (stereo not drawn)
→ -8	-3
COc1ccc(CN2CCN(c3cc(Cl)ccc3OC)C(=O)C2C)cc1 (stereo not drawn)
→ -3	-4
Cc1cccc(Cl)c1CNC(=O)c1cnc2c(-c3cccs3)cnn2c1C
→ 15	6
Cn1c(=O)n(CCCO)c(=O)c2c1nc1n2CC(c2ccccc2)=NN1CCCO
→ 9	11
Fc1cccc(Oc2cc(C(F)(F)F)nc(SCc3c(F)cccc3F)n2)c1
→ 3	1
CCC(C)(C)NC(=O)CN1C(=O)NC2(CCC(C(C)(C)CC)CC2)C1=O (stereo not drawn)
→ 16	12
COc1cc(Cn2nc(-c3ccc(F)cc3)c3sc(N4CCCC4)nc3c2=O)cc(OC)c1
→ -1	0
O=C(NC(C(=O)NCc1ccco1)C1CCN(S(=O)(=O)c2ccc(Cl)cc2)CC1)c1ccc(F)cc1 (stereo not drawn)
→ -1	-2
COC(=O)c1ccccc1C(=O)N1CCCC(N2CCN(c3ccc(F)cc3)CC2)C1 (stereo not drawn)
→ 8&1	6&5
Cc1ncc(CNC(=O)N(C)Cc2ccc(S(C)=O)cc2)s1 (stereo not drawn)
→ -1	1
O=C(CCN(Cc1ccco1)c1nc(-c2ccc(F)cc2)nc2ccccc12)NCc1cccc(C(F)(F)F)c1
→ 21	8
